Assay outcomes deposited in PubChem BioAssay by several laboratories.
T cruzi repl: blocks replication of Trypanosoma cruzi. T. cruzi beta-gal in NIH3T3, luminescence, 90 h. inhibition, % (no concentration beside the values). hit rate 1.4% among 300,000;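 active = mean inhibition across valid replicates above about 55%, limit read from the data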;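 note: signal also drops with host cell toxicity which is not excluded here; 0% = plate median of DMSO wells and 100% = zero luminescence signal; higher percent means less beta-gal luminescence so fewer parasites; stock transfer was 50 nL into about 50 µL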
E coli growth: E. coli growth inhibition; Escherichia coli growth, OD600, 23 h; active compounds read low; OD600 absorbance (concentration not given with the values); hit rate 0.21% among 330,000; AID 1053175;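 active = OD600 absorbance below the run mean of sample wells minus 3.6 SD, in any replicate, cut at about 0.56 in these data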;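 note: stock transfer was 300 nL into about 60 µL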
Beta apoptosis: blocks beta cell apoptosis. INS-1E cytokine-induced death, ATP luminescence, 48 h; percent of positive-control rescue, neutral wells zero. protection from apoptosis, % (no concentration beside the values). hit rate 0.8% among 300,000;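 active = all replicates at 75% or more, or half of them and the mean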;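 note: 0% = cytokine-treated negative control wells and 100% = positive control rescue; higher means more ATP so stronger rescue from cytokine killing; wells of about 40 µL received 100 nL stock; the first replicate is given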
Bfl-1 A1 inh: inhibitors of the anti-apoptotic protein A1, read as caspase activation; caspase activation, % (concentration not given with the values); MEF A1-2A-BIM cells, Caspase-Glo 3/7 luminescence, 3 h; percent of clofoctol response, vehicle zero; hit rate 0.066% among 330,000; AID 2462;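 active = over half of replicate activation scores above 10%, or exactly half above 10 with the replicate mean above 10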;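 note: wells of about 30 µL received 50 nL stock; many hits fall short of the cut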
FGF22 binding: shifts melting point of recombinant human FGF22; AID 651658; calls only at 9.99 µM; hit rate 1.5% among 340,000; recombinant FGF22 thermal shift, SYPRO orange fluorescence; percent of sucrose octasulfate shift, DMSO zero;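 active = melting point raised past a set limit in the mean and every replicate; three in four hits are not shown here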
Target sequence (Q9HCT0 whole entry, looked up): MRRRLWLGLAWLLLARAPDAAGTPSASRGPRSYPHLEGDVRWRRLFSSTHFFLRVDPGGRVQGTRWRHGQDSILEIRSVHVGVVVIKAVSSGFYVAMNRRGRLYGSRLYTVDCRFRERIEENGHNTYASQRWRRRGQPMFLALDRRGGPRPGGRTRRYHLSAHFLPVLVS
UCH37 DUB inh: human UCH37 deubiquitinating enzyme inhibition; Q9Y5K5; purified proteasome/UCH37, Ub-AMC cleavage fluorescence; inhibition, % (concentration not given with the values); hit rate 0.33% among 330,000; AID 588478;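 active = mean of two replicates above 20%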;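 note: 0% = compound-free wells with enzyme and 100% = wells lacking proteasome; stock transfer was 100 nL into about 20 µL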
Target sequence (Q9Y5K5 whole entry, looked up): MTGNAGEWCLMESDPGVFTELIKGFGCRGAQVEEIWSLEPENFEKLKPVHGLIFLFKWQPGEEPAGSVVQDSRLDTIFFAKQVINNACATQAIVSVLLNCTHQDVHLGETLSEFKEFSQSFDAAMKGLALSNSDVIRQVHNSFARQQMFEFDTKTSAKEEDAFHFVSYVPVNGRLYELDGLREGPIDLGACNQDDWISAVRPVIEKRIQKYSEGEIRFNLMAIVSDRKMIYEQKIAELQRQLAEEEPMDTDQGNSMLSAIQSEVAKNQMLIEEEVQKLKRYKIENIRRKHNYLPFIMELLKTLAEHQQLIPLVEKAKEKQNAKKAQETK
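System: Proteasome-associated human UCH37 deubiquitinase; Input: 0.15 nM proteasome in added enzyme buffer; Also added: Ub-AMC substrate from 1 µM stock; Incubation: 30 min compound-proteasome preincubation then 25 min substrate reaction, room temperature; Detection: fluorescence, ex 355 nm, em 460 nm; Read-out: % inhibition of Ub-AMC cleavage fluorescence; Benchmarks: no-proteasome and no-compound wells.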
rRNA inh HTS: inhibitors of bacterial rRNA selective over humanized ribosomes | E. coli WT GFP vs humanized-ribosome RFP mutants, fluorescence, 24 h; active compounds read low; DMSO median 0, no signal -100 | GFP signal change (wild-type ribosome), % (test concentration not listed) | hit rate 1.6% among 350,000 | AID 720706;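 active = significant combined selectivity score with lowered wild-type GFP, culture density cut under 30%, mutant RFP and density less affected; inactive = any of these conditions unmet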; note: one replicate is shown; some compounds called inactive have numbers as strong as hits
MLL AF4-AF9 inh: blocks AF4 peptide binding to human AF9; AlphaScreen, biotin-AF4 peptide binding to FLAG-AF9; inhibition, % at 10 µM; hit rate 0.47% among 350,000;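 active = every replicate reaching a set inhibition limit, whatever the replicate mean, cut at about 25% in these data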;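 note: 0% = plate neutral control median and 100% = total signal loss; the record names both 10 and 1 µM as test concentration; the first replicate is given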
Target sequence (P42568 whole entry, looked up): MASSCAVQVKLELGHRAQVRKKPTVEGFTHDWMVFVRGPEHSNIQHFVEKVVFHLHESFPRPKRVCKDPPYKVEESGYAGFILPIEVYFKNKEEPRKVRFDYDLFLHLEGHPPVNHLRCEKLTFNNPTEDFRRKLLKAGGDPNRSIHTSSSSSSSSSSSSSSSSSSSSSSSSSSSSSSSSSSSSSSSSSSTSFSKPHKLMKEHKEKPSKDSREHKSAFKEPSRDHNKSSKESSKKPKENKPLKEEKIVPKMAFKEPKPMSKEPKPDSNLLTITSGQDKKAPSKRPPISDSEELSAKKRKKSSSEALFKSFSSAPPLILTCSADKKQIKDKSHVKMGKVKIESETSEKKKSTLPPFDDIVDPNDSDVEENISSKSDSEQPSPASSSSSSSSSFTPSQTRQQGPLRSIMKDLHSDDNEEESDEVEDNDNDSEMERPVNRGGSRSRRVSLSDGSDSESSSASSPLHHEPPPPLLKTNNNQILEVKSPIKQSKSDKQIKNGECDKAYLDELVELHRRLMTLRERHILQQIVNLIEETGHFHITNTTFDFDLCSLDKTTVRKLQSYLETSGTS
rRNA inh HTS OD600: also measured in rRNA inh HTS; calls as there; OD600 change, %; measured here: OD600 growth;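 optical density of the mix in the first replicate; 0 = DMSO median and -100 = no signal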
rRNA inh HTS RFP: second read-out of rRNA inh HTS, no call of its own (marks repeat the call); RFP signal change, %; measured here: RFP humanized mutant strains;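 first replicate; 0 = DMSO median and -100 = no signal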
An asterisk follows results filed as active; i = inactive; nt = not tested or not shown. An excerpt; the hit share may differ from the screen's.

mol,T cruzi repl,E coli growth,Beta apoptosis,Bfl-1 A1 inh,FGF22 binding,UCH37 DUB inh,rRNA inh HTS,rRNA inh HTS OD600,rRNA inh HTS RFP,MLL AF4-AF9 inh
O=C(O)c1ncc(-c2ccccc2)cn1,-8,0.64,-8,-1.0,nt,1.7,nt,nt,nt,nt
O=C(Nc1ccc2c(c1)CN(Cc1ccc(CO)o1)CC2)c1ccc(C(F)(F)F)cc1,21,nt,5,-0.6,i,nt,-2,1,0.9,-0.8
CCOC(=O)c1nc(Nc2ccccc2CC)c2ccccc2n1,-2,0.64,-1,0.8,i,-7.3,0,3,-3.0,-0.9
CN(C)S(=O)(=O)c1cccc(NC(=O)C2Cc3ccccc3CN2C(=O)c2ccccc2)c1 (stereo not given),-1,0.66,-5,-0.8,i,-0.7,2,4,-4.6,1.2
C=CCn1c(-c2cccn(Cc3cccc(Cl)c3)c2=O)n[nH]c1=S,-5,0.69,2,0.9,nt,-6.2,nt,nt,nt,nt
COc1ccccc1C(=O)NCCNC(=O)c1ccc(C)nc1,0,0.65,-7,0.7,i,3.2,-47,-71,-9.0,1.3
O=C(CSc1nc2ccccc2c(=O)n1-c1ccccc1)c1cccc([N+](=O)[O-])c1,10,0.69,3,0.0,i,2.1,3,18,6.7,-15
CCCc1cc(=O)[nH]c(SCC(=O)Nc2ccc(Br)cc2Br)n1,-8,0.7,-4,-0.1,i,3.3,3,17,2.1,-3.2
CC(C)(C)C(=O)NC(Nc1cccc2cccnc12)C(Cl)(Cl)Cl (stereo not given),8,0.68,78*,0.0,nt,3.0,nt,nt,nt,nt
CC(C)Cn1nc(NC(=O)C(C)(C)C)c2cc3ccccc3nc21,-2,0.64,-2,-0.3,nt,-32,nt,nt,nt,nt
COc1ccc(CN(C(=O)c2snc(C(N)=O)c2N)C(C(=O)NC(C)(C)C)c2ccco2)cc1 (stereo not given),-9,0.64,6,0.3,i,-38,-1,-8,1.7,2.6
CCCc1cc(=O)n2[nH]c(-c3cccc(Br)c3)cc2n1,2,0.65,3,-1.4,i,-6.9,8,10,-1.4,-0.6
CS(=O)(=O)c1cnc2c(-c3ccsc3)cnn2c1N,-12,0.67,1,-3.4,i,2.1,4,1,-2.1,-3.2
NC(=S)N/N=C1\CCSc2ccc(Cl)cc21,43,nt,-6,0.1,i,nt,5,12,1.8,nt
Cc1ccccc1C(=O)c1c[nH]c(C(=O)N2CCN(c3ccccc3F)CC2)c1,5,0.7,2,-0.1,i,3.5,4,28,-9.8,1.2
Cc1ccc(-n2cc(CCCCCCCCC(=O)O)nn2)cc1,-11,0.77,-3,0.4,i,1.2,-11,1,3.8,0.4
CC(CN1CCOCC1)OC(=O)c1cccc(Cl)c1 (stereo not given),-2,0.69,nt,0.0,i,3.0,7,12,-1.7,-0.6
CCOCCCNC(=O)C1(O)c2cc(Br)ccc2NC(=O)N1c1ccc(CC)cc1 (stereo not given),-4,nt,-1,4.0,i,nt,6,11,2.0,-4.2
C=C1C(=O)O[C@@H]2[C@H]1CC[C@H](C)[C@]1(O)CCC(=O)[C@@]21C,-2,0.69,-43,1.0,i,3.3,11,12,-1.0,-2.3
CC(C)(C)N(Cc1ccccc1)C(=O)COC(=O)C1CC1,nt,0.7,-2,2.6,i,1.7,0,1,0.0,-6.8
COc1cccc(C2CCCCN2Cc2nc(-c3ccc(C)o3)oc2C)c1 (stereo not given),11,0.66,-4,0.3,i,-2.8,1,-7,2.5,5.4
COCc1cc(C)nc2sc3c(=O)n(-c4cccc5ccccc45)nnc3c12,37,0.72,-1,-1.3,nt,3.3,nt,nt,nt,nt
CCOC(=O)c1cc(-c2ccccc2)n(CC(=O)N2CCCC2)c1C,-2,0.7,7,-0.2,nt,3.0,nt,nt,nt,nt
CSc1ccc(CN(C)CC(=O)NCc2ccc(F)cc2)cc1,9,0.68,1,-0.2,i,1.3,-31*,-24*,-8.0*,0.2
CC1CCCCN1Cc1nc2c(c(=O)n(C)c(=O)n2C)n1CCCc1ccccc1 (stereo not given),27,0.71,-2,0.8,nt,0.1,nt,nt,nt,nt
CC1C(c2ccccc2)=[N+]([O-])C2(CCCC2)N1O (stereo not given),-18,0.67,nt,-0.3,nt,1.9,nt,nt,nt,nt
COc1ccc(-n2c(SCC(=O)Nc3cc(C(=O)O)ccc3C)nc3ccccc3c2=O)cc1Cl,-2,0.66,-5,-0.5,i,2.0,7,-4,2.1,-18
COC(=O)c1ccccc1NC(=O)Nc1nnc(N2CCCCC2C)s1 (stereo not given),-5,0.79,4,0.1,nt,5.6,nt,nt,nt,nt
O=C(Nc1cccnc1)Nc1ccc(Br)cc1Cl,1,0.67,nt,-0.7,nt,2.6,13,10,3.9,nt
FC(F)Oc1ccc(NC(=S)NCCc2ccccn2)cc1,3,0.66,0,0.2,i,0.2,-17,-16,-1.8,1.1

Laid out differently: entries from further up.
smiles: C=C1C(=O)O[C@@H]2[C@H]1CC[C@H](C)[C@]1(O)CCC(=O)[C@@]21C
  T cruzi repl = -2
  E coli growth = 0.69
  Beta apoptosis = -43
  Bfl-1 A1 inh = 1.0
  FGF22 binding = i
  UCH37 DUB inh = 3.3
  rRNA inh HTS = 11
  rRNA inh HTS OD600 = 12
  rRNA inh HTS RFP = -1.0
  MLL AF4-AF9 inh = -2.3

smiles: CC(C)(C)N(Cc1ccccc1)C(=O)COC(=O)C1CC1
  T cruzi repl = nt
  E coli growth = 0.7
  Beta apoptosis = -2
  Bfl-1 A1 inh = 2.6
  FGF22 binding = i
  UCH37 DUB inh = 1.7
  rRNA inh HTS = 0
  rRNA inh HTS OD600 = 1
  rRNA inh HTS RFP = 0.0
  MLL AF4-AF9 inh = -6.8

smiles: COc1cccc(C2CCCCN2Cc2nc(-c3ccc(C)o3)oc2C)c1 (stereo not given)
  T cruzi repl = 11
  E coli growth = 0.66
  Beta apoptosis = -4
  Bfl-1 A1 inh = 0.3
  FGF22 binding = i
  UCH37 DUB inh = -2.8
  rRNA inh HTS = 1
  rRNA inh HTS OD600 = -7
  rRNA inh HTS RFP = 2.5
  MLL AF4-AF9 inh = 5.4

Following part.
mol,T cruzi repl,E coli growth,Beta apoptosis,Bfl-1 A1 inh,FGF22 binding,UCH37 DUB inh,rRNA inh HTS,rRNA inh HTS OD600,rRNA inh HTS RFP,MLL AF4-AF9 inh
O=C(CN1C(=O)NC2(CCc3ccccc32)C1=O)c1ccc(F)cc1 (stereo not given),19,0.69,-3,0.1,i,4.7,2,-1,3.2,-0.3
CCCc1[nH]n(-c2ccc([N+](=O)[O-])cc2)c(=O)c1C(C)=NCc1ccncc1,-12,0.64,12,-3.6,i,2.6,-1,-4,-1.6,-0.7
CCCCOc1ccc(C(=O)N2CCN(c3ccc(N4CCOCC4)nn3)CC2)cc1,-10,0.69,6,-0.3,i,-125,-10,-8,-0.7,-8.0
COc1ccc(Cl)cc1S(=O)(=O)NC1CC(C)(C)NC(C)(C)C1,-14,0.66,0,0.9,i,0.8,6,7,3.3,-3.5
O=C(NCCC1CCCCN1S(=O)(=O)c1ccc(F)cc1)C(=O)NCc1ccncc1 (stereo not given),-13,0.67,nt,0.5,i,-0.7,4,3,-0.4,2.3
C[C@]12c3[nH]c4ccccc4c3CCN1C(=O)C(CC(=O)NCc1cccc(C(F)(F)F)c1)C[C@@H]2C(=O)N1CCCCC1 (stereo not given in full),nt,0.7,2,1.1,i,3.0,-16,-24,-4.7,5.1
CC1(C)OC(C(N)=O)C(C(N)=O)O1 (stereo not given),-5,0.69,-10,0.1,nt,-0.7,nt,nt,nt,nt
Cc1cccn2c(=O)c(/C=N/O)c(N3CCOCC3)nc12,-20,nt,-1,-0.6,i,nt,12,10,0.9,0.5
CC1CC(C)CN(C(=O)CSc2nc(N)cc(=O)[nH]2)C1 (stereo not given),-9,0.67,-8,0.3,i,-0.8,6,1,-3.2,-1.1
CCN(CC)c1ccc2cc(C#N)c(=O)oc2c1,-6,0.67,-3,0.5,i,2.5,21,21,5.9,-2.5
COc1cccc(C(=O)NCc2ccccc2OC)c1,-1,0.64,2,0.4,nt,-1.4,nt,nt,nt,nt
COc1cc(C2Nc3cc(C)c(C)cc3NC3=C2C(=O)CC(C)(C)C3)ccc1OC(C)=O (stereo not given),3,0.71,-7,0.0,i,13,nt,nt,nt,0.6
Cc1cc(NC2CCCC2)n2nc(C)c(-c3ccccc3)c2n1,60*,0.67,11,0.1,i,-81,-2,-6,-2.9,-2.5
Cc1ccc(C(=O)Nc2ccon2)cc1S(=O)(=O)N1CCOCC1,-8,0.72,-5,1.2,nt,3.8,nt,nt,nt,nt
Cc1ccc([N+](=O)[O-])cc1NC(=O)CN(C)CCOc1ccccc1,21,0.64,5,0.7,i,3.5,-14,-4,3.0,6.8
CC(C)=CC(=O)Nc1nnc(-c2ccccc2)s1,-5,0.71,1,-1.6,i,2.6,21,-4,0.2,5.1
O=C(CCSc1ccc(Cl)cc1)NCc1ccccn1,-9,0.72,-6,0.9,i,-0.4,0,4,2.0,-5.7
COC(=O)c1cn(C(=O)c2cccc(C)c2)c2ccccc12,-8,0.71,6,0.6,i,3.9,-9,-6,-0.6,-2.8
O=C(Cc1ccccc1)N1CCc2ccccc21,-20,0.63,-10,0.2,i,0.4,3,-1,1.6,1.3
COc1cc(NC(=O)CN2C(=O)c3ccccc3S2(=O)=O)cc(OC)c1,nt,0.7,-3,0.2,i,2.3,7,7,-1.7,1.2
CC(C)/C=C(/C(=O)c1ccc(Cl)cc1Cl)n1cncn1,26,0.69,-14,0.7,i,4.8,-1,-2,8.2,0.0
Cc1ccc(OCCCNCCO)c(Br)c1,21,0.69,-7,-1.1,nt,2.1,nt,nt,nt,nt
O=c1c(C(c2ccc(Br)cc2)c2c(O)nc3n(c2=O)CCCS3)c(O)nc2n1CCCS2,2,0.61,-10,-0.8,i,3.2,9,10,0.9,nt
CCOc1ccc(C2CC(c3cccc(OC)c3)Nc3nc(N)nn32)cc1 (stereo not given),15,0.76,-3,-0.8,i,2.0,3,4,-2.4,7.2
CCc1cccc2c(C=C(C#N)C#N)cn(CC(=O)N3CCCC3)c12,-4,0.68,0,0.2,nt,-16,nt,nt,nt,nt
Cc1ccc(NC(=O)CN(C)Cc2c(O)ccc3ccccc23)cc1,-13,0.66,3,-1.5,i,3.4,-6,1,0.0,0.8
CN(C)c1ccc(C(CNS(=O)(=O)c2ccc3ccccc3c2)c2c[nH]c3ccccc23)cc1 (stereo not given),31,0.72,-3,-0.7,nt,1.8,nt,nt,nt,nt
CCOC(=O)Cc1cc(=O)[nH]c(/N=C(\N)Nc2ccc(OC)cc2)n1,-3,nt,-3,-1.5,i,nt,10,2,-0.5,-35

Sorted by value in rRNA inh HTS (high to low): 3 of the compounds above.
| molecule | rRNA inh HTS |
| --- | --- |
| CC(C)=CC(=O)Nc1nnc(-c2ccccc2)s1 | 21 |
| O=C(Cc1ccccc1)N1CCc2ccccc21 | 3 |
| CCCc1[nH]n(-c2ccc([N+](=O)[O-])cc2)c(=O)c1C(C)=NCc1ccncc1 | -1 |
